Vaccinia mCherry: vaccinia inhibition (mCherry reporter) | Vaccinia virus mCherry reporter infection, fluorescence; about a quarter of the inactives have no number | Potency, µM (top dose mostly 36.5 µM), for inactives: at the highest dose activity change, negative = inhibition, actives largely listed as inhibitors | 310,000 compounds, 0.63% hits; active = well fitted inhibition curve with a large enough effect; inconclusive = small, poorly fitted or top-dose-only effect; inactive = no such curve, though single readings can be large or run the other way; tested in A549 cells; further: nearly all actives have a fitted effect of over 35% in size; inactives centre near -10
Vaccinia Venus: vaccinia inhibition (Venus reporter) | Vaccinia virus Venus reporter expression, fluorescence | Potency, µM (titrated, usually from 36.5 µM), for the others: at the top dose activity change, negative = inhibition, hits mostly inhibitors | 330,000 compounds, 0.46% hits; active means well fitted inhibition curve with a large enough effect; inconclusive means small, poorly fitted or top-dose-only effect; inactive means no such curve, though single readings can be large or run the other way; tested in A549 cells; further: nearly all actives have a fitted effect of over 30% in size; inactives centre near -10
The depositor's hits bear a star; & = joins results of further samples; ! = not active in a repeat; [ ] = another dose, or the depositor's remark. On the % scale 0 is the no-effect control and ±100 the full control effect; potency means the concentration at half of the fitted maximal effect.

Screening O=[N+]([O-])c1ccc(-c2cnc(SC(c3ccccc3)c3ccccc3)[nH]2)cc1 returned Vaccinia mCherry inconclusive and Vaccinia Venus inconclusive.
`N#CC1=C(N)N(c2cccc(Cl)c2)C2=C(C(=O)CCC2)C1c1cc(CN2CCOCC2)cs1` (centres undefined) gave Vaccinia mCherry 3% and Vaccinia Venus -5%.
For CCCCCCCNC(=O)C1(CC2CC(c3cccc(Br)c3)=NO2)CCNCC1 (centres undefined) the results were Vaccinia mCherry inconclusive and Vaccinia Venus 11µM*.
CCCc1ccc(S(=O)(=O)N2CCC(Oc3ccc(-n4cnnn4)cc3)CC2)cc1 was read as Vaccinia mCherry -18% and Vaccinia Venus -19%.
For Cc1ccc(CNC(=O)C(=O)NCC2OCCN2C(=O)c2ccc3c(c2)OCO3)cc1 (centres undefined) the results were Vaccinia mCherry inactive and Vaccinia Venus -7%.
For Cc1ccc(C(=O)N/N=C/C=C/c2ccccc2)o1 the results were Vaccinia mCherry -14% and Vaccinia Venus -7%.
`COCCCNC(=O)C[C@H]1C[C@H](C(=O)N2CCOCC2)[C@@]2(CCC3CCCC3)c3[nH]c4ccc(Cl)cc4c3CCN2C1=O` gave Vaccinia mCherry inconclusive and Vaccinia Venus inconclusive.
O=C(Nn1c(SCc2ccc(F)cc2)nc2ccsc2c1=O)c1ccccc1 was read as Vaccinia mCherry -19% and Vaccinia Venus -11%.
For COc1ccc(NC(=O)CS(=O)(=O)c2ccccc2Cl)cc1 the results were Vaccinia mCherry inactive and Vaccinia Venus -8%.
COc1ccc(C(=O)N=c2sccn2C)cc1 was read as Vaccinia mCherry inactive and Vaccinia Venus -8%.
`O=C(NCc1nc2ccccc2[nH]1)C1=C[C@H](C2CCCCC2)C[C@H](OCCCCO)O1` gave Vaccinia mCherry inactive and Vaccinia Venus -26%.
`COC(=O)c1ccccc1NC(=O)CN(C)S(=O)(=O)c1ccc(OC)cc1` gave Vaccinia mCherry -13% and Vaccinia Venus -10%.
For CCOc1cc(C(=S)N2CCOCC2)ccc1OS(=O)(=O)c1ccc(C)cc1 the results were Vaccinia mCherry inactive and Vaccinia Venus -17%.
CCCCN(C(=O)NC(=O)Nc1cccc(C)c1C)S(C)(=O)=O was read as Vaccinia mCherry -12% and Vaccinia Venus -19%.
`CCCn1c2ccc(F)cc2c2nnc(SCCN3CCCCC3)nc21` gave Vaccinia mCherry -7% and Vaccinia Venus 0%&-20%.
Screening Cn1c(=O)n(Cc2ccccc2F)c(=O)c2c1nc1n2CCN1Cc1ccco1 returned Vaccinia mCherry -15% and Vaccinia Venus -17%.
For COC(=O)/C=C1\OCc2cc(OC)c(OC)cc21 the results were Vaccinia mCherry 4% and Vaccinia Venus -7%.
For COc1ccc(CNC(=O)CSc2nnc3nc(C)cc(C)n23)cc1OC the results were Vaccinia mCherry inactive and Vaccinia Venus -8%.
For CC(C)(C)c1ccc(NC(=O)c2ccsc2)cc1 the results were Vaccinia mCherry -1%[7.34 µM] and Vaccinia Venus -9%[7.34 µM].
`CC(=O)Oc1ccccc1N(C(C)=O)S(=O)(=O)c1ccc2ccccc2c1` gave Vaccinia mCherry inactive and Vaccinia Venus -2%.
For CCN(CC)c1ccc(N=Cc2c(O)n(-c3ccc(OC)cc3)c(=O)[nH]c2=O)cc1 the results were Vaccinia mCherry -14% and Vaccinia Venus -5%.
For CCCC(=O)Nc1cccc2c1CCCC2 the results were Vaccinia mCherry -18% and Vaccinia Venus -10%.
`COCCNC(=O)/C=C/c1c(Cl)cccc1Cl` gave Vaccinia mCherry -1% and Vaccinia Venus -16%.
For CCC(Sc1nc2nccnc2c(=O)n1Cc1ccc(F)cc1)C(=O)NC1CCCCC1 (centres undefined) the results were Vaccinia mCherry -11% and Vaccinia Venus -3%.
For CCOC(=O)Cc1csc(SC(C)C(=O)NC2CCCCC2C)n1 (centres undefined) the results were Vaccinia mCherry -2% and Vaccinia Venus -9%.
`CC1(C)CC(NC(=S)Nc2ccc(S(N)(=O)=O)cc2)CC(C)(C)N1` gave Vaccinia mCherry 2% and Vaccinia Venus -6%.
Screening CC1CCCCC1NC(=O)CCc1nc2sc3c(c2c(=O)[nH]1)CCCC3 (centres undefined) returned Vaccinia mCherry -6% and Vaccinia Venus -21%.
`O=C(NCCC1CCCCN1S(=O)(=O)c1ccccc1)C(=O)NCc1ccccc1` (centres undefined) gave Vaccinia mCherry -13% and Vaccinia Venus -22%.
For c1ccc2cc(CCO[C@H]3CCCCO3)ncc2c1 the results were Vaccinia mCherry inactive and Vaccinia Venus -7%.
`O=c1c(Cc2ccc(F)cc2)c(O)ccn1CCc1cnc[nH]1` gave Vaccinia mCherry -2% and Vaccinia Venus -5%.
CCOC(OCC)c1nc(N)[nH]c(=O)c1CCCCc1ccccc1 was read as Vaccinia mCherry -1% and Vaccinia Venus -8%.
`O=C(CN1C(=O)c2cccc3cccc1c23)N1CCN(Cc2ccc3c(c2)OCO3)CC1` gave Vaccinia Venus -21%.
For O=C(NN1c2ccccc2CCc2ccccc21)c1ccccc1Br the results were Vaccinia mCherry -21% and Vaccinia Venus -17%.
Screening N=c1n(CCO)c2ccccc2n1Cc1ccccc1 returned Vaccinia Venus inconclusive.
Screening CCOc1ccc(S(=O)(=O)N(CC(=O)NCCSc2ccc(C)cc2)c2ccccc2)cc1 returned Vaccinia mCherry -9% and Vaccinia Venus -5%.
`NC(=O)c1cnn(-c2cc(Oc3ccccc3)ncn2)c1N` gave Vaccinia mCherry inactive and Vaccinia Venus -20%.
`O=C(CSc1nccc(-c2ccc(Br)cc2)n1)NCCc1ccccc1` gave Vaccinia mCherry -14% and Vaccinia Venus -8%.
Screening CCOc1ccc(NC(=O)c2cn3c4c(ccc(Cl)c4c2=O)OC(C)C3)cc1 (centres undefined) returned Vaccinia mCherry -5% and Vaccinia Venus -7%.
`Cc1ccc(NCc2ccc(O)c3ncccc23)cc1C` gave Vaccinia mCherry -17% and Vaccinia Venus -11%.
Screening O=C(CCN1C(=O)/C(=C/c2ccc(F)cc2)SC1=S)NNC(=O)c1cccnc1 returned Vaccinia mCherry -8% and Vaccinia Venus -5%.
For COC(=O)[C@H](CC(C)C)NC(=O)CC[C@H]1O[C@@H](n2cc(C)c(=O)[nH]c2=O)C[C@@H]1O the results were Vaccinia mCherry 0% and Vaccinia Venus 0%.
For CCCCN(CC)CCNC(=O)c1c(C)oc2ncnc(N3CCOCC3)c12 the results were Vaccinia mCherry -1% and Vaccinia Venus -9%.
Screening Cc1cc(OC(=O)c2ccccc2Cl)c([N+](=O)[O-])c(=O)[nH]1 returned Vaccinia mCherry inactive and Vaccinia Venus -10%.
COc1ccc(N2CC(C(=O)N3CCN(C(=O)c4ccco4)CC3)CC2=O)cc1 (centres undefined) was read as Vaccinia mCherry -9% and Vaccinia Venus -5%.
Screening CC1CCC/C(=N\Nc2ccc(Cl)c(C(=O)O)c2)C1 (centres undefined) returned Vaccinia mCherry -15% and Vaccinia Venus -10%.
COCCNC(=O)c1c(NC(=O)c2cc(=O)c3cc(C)cc(C)c3o2)sc2c1CCCC2 was read as Vaccinia mCherry 10% and Vaccinia Venus 5%.
CCOc1ccc(CNC(=O)c2cc3oc4ccccc4c3n2C)cc1 was read as Vaccinia mCherry 10µM*! and Vaccinia Venus 7%&12%.
`COc1cc(OC)c(-c2cc(C(=O)O)ccc2OC)c(OC)c1` gave Vaccinia mCherry -16% and Vaccinia Venus -6%.
`COc1ccc(-c2cnc3c(NC(C)=O)cc(-c4cc(F)ccc4OC)cn23)cc1OC` gave Vaccinia mCherry 7% and Vaccinia Venus -22%.
Screening C=CCNC(=O)c1cnc2n(c1=O)CCS2 returned Vaccinia mCherry inactive and Vaccinia Venus -4%.
`CCOC(=O)CSc1nc2sc3c(c2c(=O)n1C1CCCCC1)CCN(C)C3` gave Vaccinia mCherry -16% and Vaccinia Venus -16%.
For O=c1[nH]c2c(s1)C(c1ccccc1)C1C3CCC(C3)C1S2 (centres undefined) the results were Vaccinia Venus -28%.
For CCOc1ccc(S(=O)(=O)N(CC)CC(=O)NCc2ccncc2)cc1C the results were Vaccinia mCherry -29% and Vaccinia Venus -25%.
For CCOC(=O)c1sc(N)nc1C(C)(C)C the results were Vaccinia mCherry -1% and Vaccinia Venus -15%.
`O=C(Cc1ccc(F)cc1)NC1CCSC1=O` (centres undefined) gave Vaccinia mCherry inactive and Vaccinia Venus -3%.
Cc1nn(C)c(=O)n1N(C)c1ncc(C(F)(F)F)cc1Cl was read as Vaccinia mCherry -6% and Vaccinia Venus 0%.
Cc1cccc(NC(=O)CSc2nc(-c3ccco3)cc(C(F)(F)F)n2)c1C was read as Vaccinia mCherry -27% and Vaccinia Venus -24%.
`CC(=O)N1CCCc2cc(S(=O)(=O)N3CCN(c4cccc(C(F)(F)F)c4)CC3)ccc21` gave Vaccinia mCherry -6% and Vaccinia Venus 2%.
`CCN(CCCNC(=O)C1CCC(=O)N1Cc1ccc(C)cc1)c1cccc(C)c1` (centres undefined) gave Vaccinia Venus -18%.
Screening Cc1csc(=O)n1CCC(=O)OCc1nnc(-c2ccccc2Cl)o1 returned Vaccinia mCherry -12% and Vaccinia Venus -8%.
`Cc1ccc(C(=O)N/C(=C\c2ccco2)C(=O)NCCN2CCCCC2)cc1C` gave Vaccinia mCherry -10% and Vaccinia Venus -13%.
Screening Cc1cc(C)cc(C(=O)NCC(=O)OCC(=O)N2CCCC2)c1 returned Vaccinia mCherry inactive and Vaccinia Venus -3%.
For CON(C)S(=O)(=O)c1cccc(C(=O)Nc2ccc(S(=O)(=O)NC3=NCCCCC3)cc2)c1 the results were Vaccinia mCherry -11% and Vaccinia Venus -22%.
`CCn1c(COc2ccc(=O)n(-c3ccccc3)n2)n[nH]c1=S` gave Vaccinia mCherry -2% and Vaccinia Venus -13%.
For CCOc1ccc(N/C(N)=N/c2nc(CSc3nnc(C)s3)cc(=O)[nH]2)cc1 the results were Vaccinia mCherry inconclusive and Vaccinia Venus -18%.
For COC(=O)c1ccc(N=NN2CCOCC2)cc1 the results were Vaccinia mCherry inactive and Vaccinia Venus -16%.
Screening O=C(Nc1ccccc1C(=O)N1CCCC1)c1ccc(Cl)cc1Cl returned Vaccinia mCherry -3% and Vaccinia Venus -17%.
`CC1CC(=O)Nc2ccccc2N1S(=O)(=O)c1ccc(F)cc1F` (centres undefined) gave Vaccinia mCherry -3% and Vaccinia Venus -13%.
Screening CCNC(=O)C1CCCN(Cc2cc(-c3ccccc3)on2)CC1 (centres undefined) returned Vaccinia mCherry inactive and Vaccinia Venus 1%.
`CCOc1ccc(CCNC(=O)c2ccc3c(c2)N(Cc2cccc(Cl)c2)C(=O)c2ccccc2S3(=O)=O)cc1OCC` gave Vaccinia mCherry -10% and Vaccinia Venus -6%.
CCN1C(=O)NC(=O)/C(=C\c2cn(CC(=O)N3CCCC3)c3ccccc23)C1=O was read as Vaccinia mCherry -4% and Vaccinia Venus -5%.
`CCOc1ccc(NC(=O)CN2C(C(=O)OC)=C(c3ccccc3)c3cc(Cl)ccc3S2(=O)=O)cc1` gave Vaccinia mCherry -2% and Vaccinia Venus -15%.
`CC(Nc1ncnc2nc[nH]c12)c1ccccc1` (centres undefined) gave Vaccinia mCherry -15% and Vaccinia Venus -19%.
For Cc1nnc(SCC(=O)Nc2cccc([N+](=O)[O-])c2)n1CC1CCCO1 (centres undefined) the results were Vaccinia mCherry inactive and Vaccinia Venus 0%.
Cc1ccc(C(=O)NC(NC(=O)c2ccc(C)cc2)c2cccc([N+](=O)[O-])c2)cc1 was read as Vaccinia mCherry -8% and Vaccinia Venus -4%.
Screening CC(NC(=O)C(C)N1C(=O)c2cccc([N+](=O)[O-])c2C1=O)c1ccccc1 (centres undefined) returned Vaccinia mCherry -3% and Vaccinia Venus 7%.
`O=C(CSC1=NS(=O)(=O)c2ccccc21)Nc1ccccc1` gave Vaccinia mCherry 13µM* and Vaccinia Venus 10µM*.
Cc1ccc(S(=O)(=O)Nc2ccc(C(=O)N3CCCC3)cc2)cc1 was read as Vaccinia mCherry -10% and Vaccinia Venus -7%.

Among those listed so far, 9 have an aryl methoxy group.
For COc1ccc(NC(=O)CS(=O)(=O)c2ccccc2Cl)cc1 the results were Vaccinia mCherry inactive and Vaccinia Venus -8%.
COc1ccc(C(=O)N=c2sccn2C)cc1 was read as Vaccinia mCherry inactive and Vaccinia Venus -8%.
`COC(=O)c1ccccc1NC(=O)CN(C)S(=O)(=O)c1ccc(OC)cc1` gave Vaccinia mCherry -13% and Vaccinia Venus -10%.
For COC(=O)/C=C1\OCc2cc(OC)c(OC)cc21 the results were Vaccinia mCherry 4% and Vaccinia Venus -7%.
For COc1ccc(CNC(=O)CSc2nnc3nc(C)cc(C)n23)cc1OC the results were Vaccinia mCherry inactive and Vaccinia Venus -8%.
For CCN(CC)c1ccc(N=Cc2c(O)n(-c3ccc(OC)cc3)c(=O)[nH]c2=O)cc1 the results were Vaccinia mCherry -14% and Vaccinia Venus -5%.
COc1ccc(N2CC(C(=O)N3CCN(C(=O)c4ccco4)CC3)CC2=O)cc1 (centres undefined) was read as Vaccinia mCherry -9% and Vaccinia Venus -5%.
`COc1cc(OC)c(-c2cc(C(=O)O)ccc2OC)c(OC)c1` gave Vaccinia mCherry -16% and Vaccinia Venus -6%.
`COc1ccc(-c2cnc3c(NC(C)=O)cc(-c4cc(F)ccc4OC)cn23)cc1OC` gave Vaccinia mCherry 7% and Vaccinia Venus -22%.

Compound activity from PubChem.

Compounds were not picked by outcome. About 0.82% of those tested had a hit in this group.
